ClpP mod = qHTS Assay for Activators of ClpP. purified B. subtilis ClpP, FRET peptide cleavage, 20 min. actives 1.9% (n = 340,000). Potency, µM (titrated, usually from 57.5 µM), for inactives: at the top dose activity change, negative = active; active = well fitted falling curve with a large enough effect; inconclusive = small, poorly fitted or top-dose-only effect; inactive = no such curve, though single readings can be large or run the other way; also: the source files actives as falling curves though it sought activators and does not explain the sign; nearly all actives have a fitted effect of over 65% in size; many hits overshoot -100%
Target sequence (P80244 whole entry, looked up): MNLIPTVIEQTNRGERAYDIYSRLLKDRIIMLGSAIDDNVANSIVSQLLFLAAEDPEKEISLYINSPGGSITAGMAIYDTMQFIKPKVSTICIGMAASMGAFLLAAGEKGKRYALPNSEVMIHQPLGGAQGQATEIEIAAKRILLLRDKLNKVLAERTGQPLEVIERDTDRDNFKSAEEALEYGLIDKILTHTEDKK
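FRET quenching reversal measured ClpP activation: 10 microg/mL B. subtilis ClpP at pH 8 with the FRET-FV decapeptide, read at 430 nm after 320 nm excitation. The 20-min minus 0-min signal was scaled between DMSO/no-enzyme wells and ADEP (5.8 microM final).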
PINK1 modulator = A Quantitative High throughput Screen to Identify Chemical Modulators of PINK1 Expression; PINK1 immunofluorescence, high-content cytometry, 24 h; Potency, µM (series often up to 76.6 µM), without a hit: at the highest dose activation (PINK1 increase), usual class: activators; actives 0.2% (n = 410,000); active = well fitted activation curve with a large enough effect; inconclusive = small, poorly fitted or top-dose-only effect; inactive = flat fitted curve, though single readings scatter; cell line not stated here;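 also: % of control where 0% means no effect; nearly all actives have a fitted effect of over 65% in size; a mitochondrial uncoupler was the plate control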
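Fluorescence from anti-PINK1 antibody, together with nuclear and cell stains, was scanned on a laser-scanning cytometer. Before staining, stable-line cells were incubated 24 hours with compounds at 5 concentrations; primary antibody 12 h at 10 degrees C.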
The depositor's hits bear a star; u = inconclusive. Potency is read from the fitted curve at half-maximal effect. The list is partial. The share of hits here may be higher or lower than overall.

SMILES	ClpP mod	PINK1 modulator
CCCCN1C(=O)C(O)(c2c(C)[nH]c3ccccc23)c2cc(Br)ccc21 (stereo not given)	1.3%	0.6%
COc1cccc2cc(C(=O)Nc3ccc(C)cc3)c(=O)oc12	-1.2%	3.7%
O=c1c(-c2cc(-c3ccc(Cl)cc3)nc3c2COc2ccccc2-3)coc2ccccc12	-1.2%	1.0%
Cc1ccc(OCC(=O)Nc2nnc(S(=O)(=O)N3c4ccccc4CC3C)s2)cc1 (stereo not given)	2.3%	0.4%
CCCN(C(=O)Cn1ncc2c([nH]c3ccc(C)cc32)c1=O)c1ccccc1C	-17%	1.4%
Cc1ccc(F)cc1S(=O)(=O)N1CCC(c2nc3ccccc3s2)CC1	1.7%	-0.4%
COc1cc(C(=O)Nc2nnc(S(=O)(=O)N(C)c3ccccc3)s2)cc(OC)c1OC	-7.4%	-0.3%
Cc1ccc(S(=O)(=O)c2nc(-c3ccco3)oc2SCC(C)C)cc1	-13%	-0.3%
COC(=O)Cc1c(C)c2cc3c(c(C)c2oc1=O)OCN(CCc1ccc(OC)cc1)C3	4.1%	2.4%
Cc1ccc(NC(=O)CSc2nc(=O)n(CCCN(C)C)c3c2CCC3)cc1F	-3.9%	2.1%
Cc1nc2ccc(S(=O)(=O)N(C)CC(=O)Nc3ccc(Br)c(C)c3)cc2s1	-0.6%	1.6%
COc1cc(OC)c(NC(=O)CN2CCCN(Cc3ccccc3C)S2(=O)=O)cc1Cl	-4.9%	1.5%
COc1ccc(-n2nc(C(=O)Nc3ccc(C)cn3)c3c4ccccc4n(C)c3c2=O)cc1Cl	-11%	-1.7%
CCCCNC(=O)c1sc2ncccc2c1-n1cccc1	-2.6%	-0.4%
COc1cc(NC(=O)C(NC(=O)C2CCC(C)CC2)C(C)C)cc(OC)c1OC (stereo not given)	1.6%	1.8%
Fc1cc(F)c2ncc3c(-c4ccccc4)nn(-c4cccc(Cl)c4)c3c2c1	-1.2%	3.0%
Cc1cc(C)c(S(=O)(=O)NCCS(=O)(=O)N2CCN(c3ccccc3)CC2)c(C)c1	-5.8%	0.4%
CCOC(=O)c1cnc2c(C)cc(Cl)cc2c1NCCc1ccc(OC)c(OC)c1	-5.1%	1.9%
CCCCN1C(=O)C(CC(=O)NCc2cccs2)CC(C(=O)N2CCCCCC2)=C1C (stereo not given)	2.1%	2.5%
COc1cc(OC)c(NC(=O)c2cnn(-c3ccccc3)c2-n2cccc2)cc1Cl	4.9%	5.7%
COc1ccc(CC(=O)NC2CC(=O)N(c3cccc(F)c3)C2)cc1 (stereo not given)	0.1%	0.6%
CCCN1C(=O)c2ccccc2NC1c1ccc(OC)c(COc2ccc([N+](=O)[O-])cc2)c1 (stereo not given)	-8.7%	-0.1%
CNC(=O)c1ccc2nc(-c3ccco3)c(-c3ccco3)nc2c1	-16%	-0.2%
Cc1cc(C(=O)NCc2ccccc2Cl)c2c(C)nn(-c3ccccc3)c2n1	33%	0.0%
CCC12CN3CC(C)(CN(C1)C3c1ccc(O)cc1O)C2=O (stereo not given)	0.1%	-0.9%
COc1cccc(-n2cc(C(=O)OCc3ccc(Cl)cc3)c3ccccc3c2=O)c1	-25%	1.8%
Cc1ccccc1NC(=O)c1oc2c(c1C)-c1nn(Cc3cccc(Cl)c3)cc1CC2	-13%	3.0%
Cc1cc(C)c2sc(N(Cc3cccnc3)C(=O)CCOc3ccccc3)nc2c1	-8.8%	0.2%
Nc1ncnc2c1nc(Cl)n2[C@@H]1O[C@H](CO)[C@@H](O)[C@@H]1O	-8.7%	-0.4%
CCOc1cc2c(cc1OCC)C(CC(=O)OC)N(C(=O)Nc1cc(OC)ccc1OC)CC2 (stereo not given)	-23%	-0.7%

Part of the list above, with two lines to a compound.
The line under a structure holds: ClpP mod, PINK1 modulator
Fc1cc(F)c2ncc3c(-c4ccccc4)nn(-c4cccc(Cl)c4)c3c2c1
→ -1.2%, 3.0%
Cc1cc(C)c(S(=O)(=O)NCCS(=O)(=O)N2CCN(c3ccccc3)CC2)c(C)c1
→ -5.8%, 0.4%
CCOC(=O)c1cnc2c(C)cc(Cl)cc2c1NCCc1ccc(OC)c(OC)c1
→ -5.1%, 1.9%

The listing continues:
SMILES	ClpP mod	PINK1 modulator
Cc1ccc(CNC(=O)Cn2c(=O)n(-c3ccc(C)cc3)c(=O)c3c2c2cc(C)ccc2n3C)cc1	u	0.8%
Cn1cnc2c(=O)oc3ccc(S(=O)(=O)N4CCN(c5cccc(C(F)(F)F)c5)CC4)cc3c21	1.0%	2.6%
COc1cc(NC(=O)c2c(C)nn(-c3ccc(F)cc3)c2-n2cccc2)cc(OC)c1	52%	15%
CC(=O)c1ccc(NC(=O)c2nn(C)c3c2COc2ccccc2-3)cc1	0.4%	2.0%
CCOC(=O)CSc1nnc(-c2ccc(OC)cc2)o1	-0.5%	1.4%
Cc1ccc(S(=O)(=O)Nc2cccc(-c3ccc(N4CCCCC4)nn3)c2)s1	-3.7%	0.5%
COc1cccc(CNC(=O)c2ccc(CN3CC(=O)N4CCCCC4C3=O)cc2)c1 (stereo not given)	-0.9%	-1.2%
O=C(CCC1N=C2c3ccccc3N=C(SCc3ccc(Cl)cc3)N2C1=O)NC1CCCCC1 (stereo not given)	4.1%	-0.5%
CCN(Cc1ccccc1)S(=O)(=O)c1cc(Br)cc2c1N(C(=O)C1CC1)CC2	-3.7%	-0.3%
Cc1noc(/C=C/c2ccco2)c1S(=O)(=O)N1CCC(C(=O)Nc2ccc(F)c(Cl)c2)CC1	-7.9%	u
CCOC(=O)c1ccccc1NC(=O)Cn1cc(C(=O)c2cccc(OC)c2)c(=O)c2ccc(C)nc21	-1.7%	0.9%
CCc1cnc2c(c1SCC(=O)NCc1ccc(C)cc1)c(=O)n(C)c(=O)n2C	-2.4%	4.0%
CC(=O)Nc1c(C)nn(-c2ccccc2)c1N1CCC(C(=O)NCc2ccc(F)cc2)CC1	0.8%	1.7%
COC(=O)[C@]12CCCCC=C1N(Cc1ccccc1)C(=O)[C@H](CC(=O)NCc1ccc(OC)c(OC)c1)C2	-0.2%	-0.1%
CN(C)S(=O)(=O)N1CCC(n2cnc3cccnc32)CC1	1.8%	1.8%
COc1cccc(CNC(=O)Cn2nc(C)c3sc4ccccc4c3c2=O)c1OC	-5.5%	2.2%
CCOc1ccc(Nc2ncnc3c2nc2n3CCCC2)cc1	-0.4%	22%
Cc1cccc(NC(=O)c2c(NC(=O)c3cccs3)sc3c2CCC(C)C3)c1 (stereo not given)	-19%	2.8%
COc1ccc(NC(=O)N2CCN(S(=O)(=O)c3ccc4c(ccn4C)c3)CC2)cc1OC	-2.0%	0.0%
COc1ccccc1CNC(=O)Cn1ncc2c3ccccc3n(Cc3ccccc3C)c2c1=O	u	-0.9%
Cc1ccc(NC(=O)CCS(=O)(=O)c2ccc3nc(C)sc3c2)c(C)c1	3.8%	1.7%
O=C(NCc1ccc(Cl)cc1)c1cnc(N2CCOCC2)c2ccccc12	-12%	1.3%
Cc1cccc(C(=O)NCC(c2ccco2)S(=O)(=O)c2cccs2)c1 (stereo not given)	-5.1%	0.4%
CCC(=O)N1CCc2cc(CNC(=O)Nc3cc(Cl)ccc3C(=O)OC)ccc21	u	12%
COc1ccc(Nc2ncc(C(=O)Nc3cc(Cl)c(OC)cc3OC)c3ccccc23)cc1	u	0.8%
Cc1c(Cl)cccc1NC(=O)c1cccc(NC(=O)N2CCSc3ncccc32)c1	u	-0.4%
CCc1ccccc1NC(=O)c1cc(S(=O)(=O)NC2CCCC2)ccc1F	-1.4%	-0.5%
Cn1c(=O)oc2cc(S(=O)(=O)N3CCC(C(=O)N4CCN(c5ccc(Cl)cc5)CC4)CC3)ccc21	-2.0%	1.4%
Cc1ccc(S(=O)(=O)N2CCc3cc(C(=O)Nc4ccc(C)c(C)c4)ccc32)cc1	-20%	-1.2%
COc1cccc(CNC(=O)Cc2ccc(NC(=O)N3CCSc4ncccc43)cc2)c1OC	-13%	0.6%
Cc1ccc(NC(=O)c2sc3ncn(Cc4cccc(F)c4)c(=O)c3c2C)c(Br)c1	-10%	4.2%
Cn1nnc2c(N3CCN(c4ccc(F)cc4)CC3)ncnc21	0.2%	1.6%
CC(=O)Nc1ccc(NC(=O)CCS(=O)(=O)c2ccc3c(c2)CC(=O)N3C)cc1	-1.4%	-0.3%
CCS(=O)(=O)NCC(c1ccco1)N1CCN(c2ccc(OC)cc2)CC1 (stereo not given)	-8.8%	0.7%
Cc1ccc(-c2nc3scc(CCNS(=O)(=O)c4ccc(Oc5ccccc5)cc4)n3n2)cc1	3.3%	7.8%
CCc1ccc(CNC(=O)c2cc(-c3ccc(Br)s3)nc3ccccc23)cc1	-14%	2.4%
Cc1ccc(NC(=O)NCCOCCn2c(=O)oc3ccccc32)cc1F	-1.0%	1.6%
COc1ccc(CNC(=O)Cn2ncc3c4ccccc4n(Cc4cccc(Cl)c4)c3c2=O)cc1	-13%	-1.0%
COc1ccc(-c2noc(N3CCC(C(=O)N4CCN(c5cccc(C)c5C)CC4)CC3)n2)cc1	0.0%	2.2%
COC(=O)c1c(NC(=O)Cc2coc3cc(C)ccc23)sc2c1CCC2	u	-1.6%
COCCN(CCOC)S(=O)(=O)c1ccc(C(=O)Nc2sc3c(c2C(N)=O)CCCC3)cc1	-6.9%	5.7%
COc1cc(NC(=O)CN2CCN(S(=O)(=O)c3ccc(Br)cc3)CC2)cc(OC)c1	1.3%	0.8%
CCOC(=O)c1c(-c2ccc(Br)cc2)csc1NC(=O)c1ccccc1F	-13%	-1.1%
CC(C)CCOc1ccc(Cn2c(=O)oc3ccccc32)cc1	1.6%	-0.8%
Cc1ccc(Cl)cc1NC(=O)C(=O)NCC(c1cccnc1)N1CCc2ccccc21 (stereo not given)	-1.3%	0.2%

In a second layout: four of the compounds above.
> Cc1ccc(-c2nc3scc(CCNS(=O)(=O)c4ccc(Oc5ccccc5)cc4)n3n2)cc1
  ClpP mod: 3.3%
  PINK1 modulator: 7.8%

> CCc1ccc(CNC(=O)c2cc(-c3ccc(Br)s3)nc3ccccc23)cc1
  ClpP mod: -14%
  PINK1 modulator: 2.4%

> Cc1ccc(NC(=O)NCCOCCn2c(=O)oc3ccccc32)cc1F
  ClpP mod: -1.0%
  PINK1 modulator: 1.6%

> COc1ccc(CNC(=O)Cn2ncc3c4ccccc4n(Cc4cccc(Cl)c4)c3c2=O)cc1
  ClpP mod: -13%
  PINK1 modulator: -1.0%

Further compounds follow:
SMILES	ClpP mod	PINK1 modulator
COc1ccc(-c2cnnn2-c2ccc(NC(=O)c3ccccc3OC)cc2)cc1	0.0%	0.6%
CSc1ncc2c(n1)-c1ccccc1N(Cc1ccccc1)S2(=O)=O	-8.2%	6.4%
CC(=O)c1ccc(N2CCN(C(=O)CCn3cnc4onc(-c5ccc(F)cc5)c4c3=O)CC2)cc1	-3.9%	0.0%
COc1cccc(C(=O)Nc2c(C(=O)Nc3ccc(F)cc3)oc3ccccc23)c1OC	-7.1%	0.0%
O=c1[nH]c(=S)[nH]c2c1C(c1ccc(F)cc1)OC(CCc1ccccc1)C2 (stereo not given)	0.9%	0.1%
OC(C[n+]1ccccc1Cl)c1ccccc1 (stereo not given)	-4.2%	0.8%
COc1cc2c(cc1OC)C(COc1ccc3c(C)cc(=O)oc3c1)N(C(=O)c1ccc(Cl)cc1)CC2 (stereo not given)	-6.8%	1.3%
Cc1cccc(N2CCN(C(=O)C3CCN(S(=O)(=O)c4c(C)noc4/C=C/c4ccccc4F)CC3)CC2)c1C	-0.9%	-0.1%
COc1ccccc1CNC(=O)c1ccc(N2CCCC2)c(NC(=O)NCc2ccc(C)cc2)c1	-10%	-1.6%
COCCCNC(=O)c1cnn(-c2ccccc2Cl)c1C1CCN(C(=O)OC(C)(C)C)CC1	0.6%	-0.8%
CCOC(=O)C1=C(CS(=O)(=O)c2c(C)cc(C)cc2C)NC(=O)NC1c1cccc(OC)c1 (stereo not given)	-1.2%	1.9%
COCCn1c(SCC(=O)Nc2ccc(C(F)(F)F)cc2)nc2c([nH]c3ccccc32)c1=O	-2.7%	-0.6%
Cc1ccc(C(=O)c2cn(Cc3ccccc3)c3c(F)cc(F)cc3c2=O)cc1	-2.9%	1.5%
CCn1cc(C(=O)Nc2ccc(C(C)C)cc2)c2cc(OC)c(OC)cc2c1=O	0.9%	5.3%
Cc1ccc(C2=Nc3ccccc3N(CC(=O)NCc3ccc(Cl)cc3)C(=O)C2)cc1C	-2.7%	0.0%
COc1ccc(OCC(O)Cn2c(NCCO)nc3c2c(=O)n(C)c(=O)n3C)cc1 (stereo not given)	-3.9%	0.3%
Cc1ccc(NC(=O)CSc2nnc(-c3ccc(Br)cc3)o2)c(C)c1	0.1%	0.7%
Cc1ccc(CCNC(=O)c2ccc(CSCc3ccccc3Cl)o2)cc1	-1.0%	4.4%

One compound at a time, from the list above.
Cc1ccc(CNC(=O)Cn2c(=O)n(-c3ccc(C)cc3)c(=O)c3c2c2cc(C)ccc2n3C)cc1 in the list: ClpP mod: u; PINK1 modulator: 0.8%
Cc1ccc(NC(=O)NCCOCCn2c(=O)oc3ccccc32)cc1F in the list: ClpP mod: -1.0%; PINK1 modulator: 1.6%
